AmpC inh no det = inhibitors of E. coli AmpC beta-lactamase without detergent | P00811 | AmpC nitrocefin hydrolysis, absorbance 480 nm, no detergent; potencies from a single point are estimates | Potency, µM (titrated, usually from 28.7 µM), without a hit: top-dose activity change, negative = inhibition | 71,000 tested, 1.8% active | AID 585; active = falling curve, for most hits resting on a single point; inconclusive = weak or doubtful change; inactive = flat or rising curve; also: % of control where 0% means no effect; about half of the hits show no inhibition at the top dose; a quarter of the inactives give rising signals
Target sequence (P00811 whole entry, looked up): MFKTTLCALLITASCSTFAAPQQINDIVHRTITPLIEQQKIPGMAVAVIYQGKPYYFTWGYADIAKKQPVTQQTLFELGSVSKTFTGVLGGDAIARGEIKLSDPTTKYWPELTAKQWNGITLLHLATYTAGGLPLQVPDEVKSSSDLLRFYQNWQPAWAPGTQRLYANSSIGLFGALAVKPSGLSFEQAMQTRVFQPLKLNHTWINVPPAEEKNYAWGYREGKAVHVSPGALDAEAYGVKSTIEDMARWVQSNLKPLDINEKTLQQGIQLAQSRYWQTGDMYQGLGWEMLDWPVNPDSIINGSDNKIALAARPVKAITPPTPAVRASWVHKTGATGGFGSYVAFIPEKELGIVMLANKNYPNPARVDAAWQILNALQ
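AmpC in 20 mM phosphate buffer pH 7.0 was preincubated 15 min at room temperature with compounds. Nitrocefin (800 uM stock) was then added and hydrolysis followed at 480 nm every 20 s for 4 min.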
Starred values were filed as active, the others as inactive; & = joins results of further samples; [ ] = another dose, or the depositor's remark. Potency is read from the fitted curve at half-maximal effect. A portion of the library; the hit share may differ from the screen's.

SMILES	AmpC inh no det
CN(Cc1ccccc1)c1ncnc2c1cnn2-c1ccccc1	34%
O=C(CN1CCN(C2CCCCC2)CC1)Nc1ccccc1-c1ccccc1	70%
CC(=O)c1ccc(NC(=O)CCn2c(=O)oc3ccccc32)cc1	-4%
COc1ccc(-c2nc(N3CCCC3)[nH]c(=O)c2C#N)cc1	12%
Cc1c(C(=O)Nc2ccccc2N2CCOCC2)sc2nc3n(c(=O)c12)CCC3	-7%
Nc1nonc1-c1noc(CCCN2C(=O)c3ccccc3C2=O)n1	-13%
Cc1ccc(S(=O)(=O)N(CCO)Cc2cc3ccc(C)c(C)c3[nH]c2=O)cc1	78%
COc1ccc2nc3oc(C(=O)N4CCN(c5cccc(Cl)c5)CC4)cc3cc2c1	31%
CCc1c(C)c2ccc(OCC(N)=O)cc2oc1=O	-2%
CCc1ccc(C2C3=C(CC(C)(C)CC3=O)Nc3c2c(=O)[nH]c2nc(C)nn32)cc1 (stereo unspecified)	14%
CN(C)C=C1C(=O)N(C2CCCCC2)C(=O)N(C2CCCCC2)C1=O	5%
COc1ccc(-c2nc(CSCC(=O)N3CCN(c4cccc(C)c4)C(C)C3)c(C)o2)cc1OC (stereo unspecified)	152%
COc1cc2c(cc1OC)C(C(=O)O)C(c1cc(Br)c(O)c(OC)c1)N(C)C2=O (stereo unspecified)	-4%
CCOc1ccc(CN2CCN(c3cc(C)nc4c5c(C)cc(C)nc5nn34)CC2)cc1	90%
CCCn1c(SCC(=O)Nc2c(CC)cccc2CC)nnc1C(C)C	29%

In a second layout: 4 of the compounds above.
SMILES: CCc1ccc(C2C3=C(CC(C)(C)CC3=O)Nc3c2c(=O)[nH]c2nc(C)nn32)cc1 (stereo unspecified)
  AmpC inh no det: 14%
SMILES: CC(=O)c1ccc(NC(=O)CCn2c(=O)oc3ccccc32)cc1
  AmpC inh no det: -4%
SMILES: COc1ccc(-c2nc(N3CCCC3)[nH]c(=O)c2C#N)cc1
  AmpC inh no det: 12%
SMILES: COc1cc2c(cc1OC)C(C(=O)O)C(c1cc(Br)c(O)c(OC)c1)N(C)C2=O (stereo unspecified)
  AmpC inh no det: -4%

Later entries.
SMILES	AmpC inh no det
CCCCc1ccc(Nc2nc(CCC)cc(=O)[nH]2)cc1	-8%
COC(=O)c1c(C)[nH]c(C)c1-c1ccccc1Cl	9%
CCOc1ccc(N(C(C)C(=O)Nc2ccc(OC)cc2)S(C)(=O)=O)cc1 (stereo unspecified)	24%
CCOC(=O)c1[nH]c(=O)[nH]c1CSc1nc(C)cc(C)n1	-4%
CC(C)(C)n1nnnc1CN1C2CCC1CC(NC(=O)Nc1ccccc1)C2 (stereo unspecified)	3%
COc1ccc(OC)c(NS(=O)(=O)c2ccc(SC)cc2)c1	-11%
O=C(O)c1cc(-c2ccccc2)n(-c2ccccc2C(=O)O)n1	-4%
Cc1noc(C)c1C(=O)N1CCC2(CC1)CN(Cc1cc(C(F)(F)F)cc(C(F)(F)F)c1)C2	-3%
O=C1c2ccccc2C(=O)N1c1ccc(Cc2ccc(N3C(=O)c4ccccc4C3=O)cc2)cc1	6%[5.75 µM]
C[C@@]1(CO)[C@H](O)CC[C@]2(C)[C@@H]1CC[C@H]1C[C@H]3C[C@]12CC[C@]3(O)COC(=O)CN	11%[5.75 µM]
CN(C)Cc1cc(Cl)c(O)c(CN(C)C)c1	-3%[5.75 µM]
CN1CC(=O)N(C)c2nc(Br)n(C)c2C1=O	-5%
CCn1cc(Br)c(C(=O)Nc2cccc(SC)c2)n1	0%
Cc1cccc(C(=O)Nc2ccc(CC(=O)O)cc2)c1	2%
COCCCNC(=O)c1oc2ccc(S(=O)(=O)N(C)C3CCCCC3)cc2c1C	128%
O=S(=O)(O)c1cc(O)ccc1O	-12%[12.8 µM]
CCOc1ccccc1C(=O)NC1CC2CCCC(C1)N2C1CC1 (stereo unspecified)	-6%
CC(C(=O)N1CCC2(CC1)OCCO2)C1Sc2ccccc2NC1=O (stereo unspecified)	13%
CC(=O)c1cccc(N(C(=O)c2ccco2)C(C(=O)NC2CCCC2)c2ccncc2)c1 (stereo unspecified)	12%
CN(Cc1ccco1)c1ncnc2ccc(-c3cccc(NS(C)(=O)=O)c3)cc12	63%
CCOC(=O)CN(C(=O)CSc1nnc(-c2ccncc2)n1CCCN(C)C)c1ccccc1	-3%
CC(=O)NC(C)c1nc2ccccc2n1C(C)C (stereo unspecified)	4%
COC(=O)c1ccccc1NC(NC(=O)c1ccco1)C(=O)c1ccc(C)cc1 (stereo unspecified)	36%
Clc1ccc(-c2ccc(-c3nn4c(-c5ccco5)nnc4s3)o2)cc1	110%
CCC(=O)c1ccc(OCC(O)Cn2cnc3ccccc32)cc1 (stereo unspecified)	16%
CCn1c(CCNC(=O)c2ccc(Cl)cc2)nnc1SCC(=O)NC1CCCC1	33%
O=C1OC2(CCCCC2)OC(=O)C1=CNc1nccs1	-4%
CCOC(=O)N1CCC(NCCNC(=O)c2ccccc2)CC1	-8%
NC(=O)c1ccc2c(c1)OCCO2	-4%
CCCC(C(=O)NCc1ccco1)N(C(=O)CNS(=O)(=O)c1ccccc1)c1ccccc1OC (stereo unspecified)	15%
O=C(CN1CCN(Cc2ccc3c(c2)OCO3)CC1)Nc1ccc2c(c1)OCCO2	43%
c1csc(-c2nc3ccccc3[nH]2)c1	2%
CSc1nnc(-c2cnccn2)n1C	-13%
COc1ccccc1C1N(c2ccc(Cl)cc2)C(=O)C2CCCN21 (stereo unspecified)	-9%
CC(=O)c1cccc(OCCN2C(=O)NC(C)(C)C2=O)c1	8%
CC1CCCN(S(=O)(=O)c2ccc(NC(=O)Cn3nnc(-c4ccccc4F)n3)cc2)C1 (stereo unspecified)	16µM*
Cc1oc(-c2cccs2)nc1CS(=O)CC(=O)NC1CCCCCC1 (stereo unspecified)	-18%
CCn1c(CCn2ccnc2C)n[nH]c1=S	-4%
C=C(C)CSc1nc2nc(C)cc(C)n2n1	-3%
Cc1cccc(NC(=O)Cn2c(=O)n(Cc3ccco3)c(=N)c3c4c(sc32)COC(C)(C)C4)c1	98%
Cc1nn(CC(=O)Nc2ccc3c(c2)nc(CN2CCCCC2)n3C)c(=O)c2ccccc12	45%
COC(=O)C1=C(N)Oc2cc(C)n(Cc3cccnc3)c(=O)c2C1c1cc(OC)ccc1OC (stereo unspecified)	52%
COCCN(CCOC)S(=O)(=O)c1ccc(C(=O)Nc2nc(C)c(C(C)=O)s2)cc1	43%
CCn1ncc(Br)c1C(=O)Nc1sc2c(c1C(N)=O)CCC2	10%
COc1ccc(C2C(C#N)=C(N)OC(C(C)(C)C)=C2C#N)cc1OC (stereo unspecified)	50%

Arranged by heavy-atom count (high to low): some entries from above.
SMILES	AmpC inh no det
O=C(CN1CCN(Cc2ccc3c(c2)OCO3)CC1)Nc1ccc2c(c1)OCCO2	43%
Cc1oc(-c2cccs2)nc1CS(=O)CC(=O)NC1CCCCCC1 (stereo unspecified)	-18%
c1csc(-c2nc3ccccc3[nH]2)c1	2%

Taken from above.
For AmpC inh no det, `CN1CC(=O)N(C)c2nc(Br)n(C)c2C1=O` is listed with -5%
For AmpC inh no det, `COc1ccc(-c2nc(CSCC(=O)N3CCN(c4cccc(C)c4)C(C)C3)c(C)o2)cc1OC` (stereo unspecified) is listed with 152%
For AmpC inh no det, `CCc1c(C)c2ccc(OCC(N)=O)cc2oc1=O` is listed with -2%

Additional entries follow:
SMILES	AmpC inh no det
COc1ccc(-c2nc(C)c(C(C)=O)n2O)cc1OC	-5%
Cc1cccc(OCCn2c(=O)n(C)c3ccccc32)c1	70%
COC(=O)N1CCC[C@@]2(CCN(C(=O)Nc3cccc(C#N)c3)C2)C1	3%
O=C(CN1CCN(S(=O)(=O)c2ccc(Br)cc2)CC1)Nc1ccc(F)cc1F	79%
COc1ncc2nc(-c3ccccc3)c(=O)n(CCC#N)c2n1	16%
CN(CCNC(=O)c1cc2c(=O)n(C)c3ccccc3c2n1C)Cc1ccccc1	120%
C=CCOc1ccc(C2c3c(oc4ccccc4c3=O)C(=O)N2c2ccccn2)cc1OCC (stereo unspecified)	-4%
CCOC(=O)NCC(C)(C)CNC(=O)OCC	-3%
COc1ccc(Cn2nnnc2CN2CCC(c3nc4ccccc4s3)CC2)cc1	95%
CCCn1c(SCC(=O)Nc2nnc(CC)s2)nnc1-c1ccco1	18%
CCN(C(=O)N(CC)c1ccccc1)c1ccccc1	27%
CCOC(=O)c1c(C)[nH]c(C(=O)OCc2c(C)noc2C)c1C	39%
O=C(/C=C/N1CCOCC1)c1cc2ccccc2o1	-13%
CCOC(=O)CNc1nc(-c2ccncc2)nc2ccccc12	8%
COc1cccc(-n2c(C)c(C(C)=O)c(C(C)=O)c2C)c1	3%
N=c1c(S(=O)(=O)c2ccccc2)cc2c(=O)n3ccccc3nc2n1CC1CCCO1 (stereo unspecified)	97%
O=S1(=O)CCC(NS(=O)(=O)c2cccc3cccnc23)C1 (stereo unspecified)	6%
O=C(NCC1CCCO1)c1ccc2c(=O)n(CCc3ccccc3)c(=O)[nH]c2c1 (stereo unspecified)	8%
COc1cc(NC(=O)Cc2ccccc2)ccc1NC(=O)c1ccco1	-11%
CC[C@@](N)(C(=O)O)c1ccc(C(=O)O)cc1	42%
Cc1cc(N2C(=O)C3CCCN3C2c2sccc2C)no1 (stereo unspecified)	-1%
Nc1nnc(Cc2ccc(Cl)cc2)s1	2%
CS(=O)(=O)Nc1cccc(-c2cncnc2NCc2cccs2)c1	-10%
CCc1nc(SCC(=O)Nc2c(C)n(C)n(-c3ccccc3)c2=O)n[nH]1	6%
O=C(CCNc1ccc(F)cc1)c1ccco1	12%
O=C(Nc1nc2c(s1)CCCC2)c1cccs1	-19%
O=C(c1cc(-c2ccccn2)nc2c(Cl)cccc12)N1CCN(C(=O)C2CCCO2)CC1 (stereo unspecified)	115%
CC(=O)c1nnn(-c2nc(N)nc(N(c3ccccc3)c3ccccc3)n2)c1C	60%
O=C(N1CCOCC1)C12CC3CC(C1)CC(C(=O)N1CCOCC1)(C3)C2	-1%
CCOc1cccc2c1OC1(C)CC2NC(=O)N1c1cccc(Cl)c1 (stereo unspecified)	14%
Nc1nc(-c2ccc3ccccc3c2)cc(-c2cc(-c3ccc4ccccc4c3)nc(N)n2)n1	-5%[5.75 µM]
COc1ccc(Cn2c(=O)[nH]c3cc(C(=O)NCCCN4CCCC4)ccc3c2=O)cc1	19%
COc1ccc(-n2ncc3c(N4CCCc5ccccc54)ncnc32)cc1	78%
CN(C)Cc1cc(C(C)(C)C)c(O)c(C(C)(C)C)c1	9%
CCn1c(=N)n(CC(O)COc2cccc(C)c2)c2ccccc21 (stereo unspecified)	12%
Cc1cc2nc3c(c(=O)n2[nH]1)CCCC3	-7%
COc1ccc(NC(=O)c2ccc(C(=O)c3ccccc3)o2)cc1	-10%
COc1ccc(OC)c(CNC(=O)Cc2c(C(=O)O)[nH]c3ccccc23)c1	-4%
Cc1onc(-c2ccccc2)c1C(=O)N1CCc2ccccc21	20%
O=C(Nc1ccc(N2CCOCC2)c(Cl)c1)c1cccnc1	-7%
N#Cc1c(N)c(C(=O)c2ccc(Cl)cc2)n2c1CCC2	-4%
CCc1ccc(-c2nnn(Cc3nn[nH]n3)n2)cc1	-2%
O=C(c1ccccc1)c1ccccc1C(=O)N1CCOCC1	5%
Cc1ccc(S(=O)(=O)N2CCC(C(=O)O)CC2)cc1C(=O)O	-20%
CCc1c(C)nc(SCC(=O)CC(=O)OC(C)C)c(C#N)c1C	38%

Next section; it opens with the two that closed the last part.
SMILES	AmpC inh no det
Cc1ccc(S(=O)(=O)N2CCC(C(=O)O)CC2)cc1C(=O)O	-20%
CCc1c(C)nc(SCC(=O)CC(=O)OC(C)C)c(C#N)c1C	38%
CCOC(=O)C(C)Sc1nc2ccccc2c(=O)n1CC (stereo unspecified)	30%
COc1ccc(CCN(C)CCc2ccc(OC)c(OC)c2)cc1OC	18%&2%
Cc1[nH]c2ccccc2c1C(=O)CN1CCN(C2CCCCC2)CC1	4%
CCOC(=O)CSc1nc(C2CC2)nc2ccccc12	6%
COC(=O)c1ccccc1NC(=O)c1cc2n(n1)C(C(F)F)CC(C(F)F)N2 (stereo unspecified)	-3%
COc1cc(-c2c(C#N)c(N)nc3c2c(C)nn3-c2ccc(C)c(C)c2)cc(OC)c1OC	56%
CN1/C(=C/C=N/n2cnnc2)C(C)(C)c2ccccc21	4%
COc1cc(NC(=O)c2ccc(Cl)cc2)c(OC)cc1NC(=O)CN1CCOCC1	123%
CCSc1nc2c(c(=O)n(C)c(=O)n2C)n1Cc1ccc(Cl)cc1	74%
COc1ccc(CN(Cc2ccccn2)S(=O)(=O)c2ccc(-n3cnnn3)c(OC)c2)cc1	97%
CNc1nc(C)nc(-c2ccccc2O)n1	-1%
CCOC(=O)C1=C(Cn2cnc3ccccc32)NC(=O)NC1c1cc(C)ccc1C (stereo unspecified)	24%
O=C(Nc1ccc2c(c1)CCC2)c1cnn2c1NC(c1ccco1)CC2C(F)(F)F (stereo unspecified)	0%
CC1CCC(NC(=O)c2cc3c(s2)CS(=O)(=O)C3)CC1 (stereo unspecified)	-14%
N#Cc1ccc(CSc2nnc(-c3cccc(S(=O)(=O)N4CCCCC4)c3)o2)cc1	4%
O=C(CSc1ncnc2c1oc1ccccc12)Nc1cccc(Cl)c1	6%
Cc1cc(C)nc(Sc2ccc3nnc(C(F)(F)C(F)(F)C(F)(F)F)n3n2)n1	45%
COc1ccc(-n2c(=O)c(CCc3ccccc3)nc3cnc(OC)nc32)cc1	4%
CCN=C1SC(CC(=O)NC(N)=O)C(=O)N1CC (stereo unspecified)	0%
Cc1ccc(S(=O)(=O)Nc2ccc(C(=O)Nc3cc(C)on3)cc2)cc1	-20%
Cc1cc(C)n(-c2ccc(Cl)c(C(=O)O)n2)n1	-2%
O=c1c2ccccc2nnn1CSc1nnc(-c2cccc(S(=O)(=O)N3CCCCC3)c2)o1	18%
CC(C)N(C(=O)N1CCC(c2nc(-c3ccncc3)no2)CC1)C(C)C	66%

Assay outcomes: PubChem BioAssay, National Center for Advancing Translational Sciences (NCATS)
